HCMV NEC inh – inhibitors of HCMV UL50-UL53 nuclear egress complex interaction; HTRF UL50-UL53 interaction, normalized percent inhibition; AID 1918969; inhibition, % (no concentration beside the values); hit rate 0.15% among 190,000;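 active = both replicates at 50% or more, plus weaker picks with an unusually low signal ratio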;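 note: stock transfer was 100 nL into about 20 µL; 0% = negative control wells and 100% = wells with untagged competitor protein; inactives centre near -12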
GIV Gai3 FP – inhibitors of GIV GBA-motif binding to rat Galpha-i3; P08753; Galpha-i3/FITC-GIV peptide fluorescence polarization, 90 min; hits give low values; scaled: aluminum fluoride 0%, vehicle 100%; percent of control (FP), % (concentration not given with the values); hit rate 0.42% among 210,000; AID 1224905;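 active = replicate mean at 85% of control or lower, very high polarization wells dropped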;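 note: wells of about 15 µL received 100 nL stock; the first replicate is given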
Target sequence (P08753 whole entry, looked up): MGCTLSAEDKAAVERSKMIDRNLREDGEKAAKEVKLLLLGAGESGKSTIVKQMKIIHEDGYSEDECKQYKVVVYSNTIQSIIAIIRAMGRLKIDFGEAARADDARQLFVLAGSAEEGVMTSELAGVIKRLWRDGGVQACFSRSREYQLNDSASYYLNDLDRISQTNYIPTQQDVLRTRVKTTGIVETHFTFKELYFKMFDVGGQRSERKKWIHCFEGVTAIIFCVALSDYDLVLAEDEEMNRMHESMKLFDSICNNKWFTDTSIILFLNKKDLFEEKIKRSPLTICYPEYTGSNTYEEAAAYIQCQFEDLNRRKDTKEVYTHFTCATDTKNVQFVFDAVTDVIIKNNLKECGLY
Sa growth inh – inhibitors of Staphylococcus aureus growth at 42 °C | S. aureus RN4220 growth, OD600, 20 h; hits give low values | relative growth, % (no concentration beside the values) | hit rate 0.53% among 170,000;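 active = growth at 42 °C up to 50% and 20 or more points under that at 30 °C, or under 10% at both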;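 note: 300 nL library stock went into each well; scaled to the means of positive and negative controls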
Sa growth inh second temp – second read-out of Sa growth inh, no call of its own (marks repeat the call); relative growth, %; measured here: growth at 30 °C;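 optical density after 20 h as mean of two plates; 100% = untreated growth and lower means inhibition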
Numbers without * were called inactive; x = no result given; & = joins results of further samples.

Every second line gives: HCMV NEC inh	GIV Gai3 FP	Sa growth inh	Sa growth inh second temp
- COCCNC(=O)c1ccccc1NS(=O)(=O)c1ccc(NC(C)=O)cc1
→ 0	103	100	97
- Cc1[nH]n(-c2ccccc2)c(=O)c1/C=C1\C=NN=C1c1ccccc1
→ -8	x	99	110
- Cc1ccc(OCCSc2nc3ccccc3n2CC(=O)N2CCCCC2)c(C)c1
→ -2	102	111	88
- CCOC(=O)c1c(C)[nH]c(C)c1C(=O)COC(=O)CSc1nc2ccccc2o1
→ -33	x	84	81
- CC(=O)Nc1sc(C)c(C)c1CN1CCCC(C)C1 (stereo unspecified)
→ 9	x	100	88
- O=C(COc1ccc(Cl)cc1Cl)NCC12C=CC(O1)C1C(=O)N(Cc3ccccc3)C(=O)C12 (stereo unspecified)
→ -4	101	104	70
- O=C(c1ccc2c(Cl)c3c(nc2c1)CCCC3)N1CCN(c2cccc(C(F)(F)F)c2)CC1
→ -23	99	104	90
- O=C(CN1C(=O)CSc2ccc(C(=O)N3CCCC3)cc21)NCc1ccc2c(c1)OCO2
→ -19	104	x	x
- O=C(Oc1ccccc1-c1nnco1)c1ccc(Cl)cc1
→ -26	103	102	91
- O=C(CCCn1c2ccccc2c2cn[nH]c(=O)c21)NCC1CCCO1 (stereo unspecified)
→ -7	100	97	95
- C=CCN1C(=O)C(Cc2ccc(O)cc2)NC1=S (stereo unspecified)
→ x	104	89	88
- CCn1c(Cc2ccccc2)nnc1SCc1ccc(C#N)cc1
→ -9	97	96	92
- O=C(Nc1nc(-c2ccc3c(c2)OCO3)cs1)c1cc2ccccc2o1
→ -5	x	105	90
- CCN(c1ccccc1)c1nc2ccsc2c(=O)s1
→ x	112	84	99
- c1ccc(-n2ncc3c(N4CCN(c5ncccn5)CC4)ncnc32)cc1
→ 22	x	114	111
- Cc1cc(C)cc(S(=O)(=O)Nc2ccc(-c3ccc(N4CCOCC4)nn3)cc2)c1
→ -48	99	x	x
- Cc1cc(C(=O)N2CCCC2c2ccccc2C)on1 (stereo unspecified)
→ -27	109	x	x
- O=C(c1cnn2c1NC(c1ccc3c(c1)OCO3)CC2C(F)(F)F)N1CCN(C(c2ccccc2)c2ccccc2)CC1 (stereo unspecified)
→ -6	96	x	x
- CCOC(=O)c1c(C)nn(Cc2cccc(Cl)c2)c1N
→ x	103	102	75
- CC(C)(C)c1nnc2sc(-c3cc4ccccc4[nH]3)nn12
→ -6	112	x	x
- CC(C)(Oc1ccc(Cl)cc1)C(=O)Nc1cccc(-c2cn3cccnc3n2)c1
→ x	108	92	82
- COc1cccc(CCNC(=O)c2sc3ncccc3c2-n2cccc2)c1
→ -20	99	x	x
- CCN(CC)CCCC(C)Nc1ccnc2cc(Cl)ccc12 (stereo unspecified)
→ -10&-16&-16&-2	108&100	101&94	96&89
- CCc1ccc(NC(=O)CSc2nc3ccccc3c(=O)n2CCNC(C)=O)cc1
→ x	101	99	86
- COC(=O)CC1Oc2ccc(C)cc2-n2cc(-c3ccc(C)cc3)nc21 (stereo unspecified)
→ 2	99	117	94
- Cc1nc(N2CCN(c3ccccn3)CC2)c2c(C)c(C(=O)N3CCC4(CC3)OCCO4)sc2n1
→ -1	106	x	x
- Cc1nc(C)c(S(=O)(=O)NCc2ccc(-c3cccs3)cc2)s1
→ -1	99	132	101
- COc1ccc(OC)c(/C=C/C(=O)O)c1
→ -14	97	99	102
- CSc1nnc(COc2cccc(C)c2)n1C
→ -22	102	127	88
- COC(=O)c1ccc(Cl)cc1NC(=O)N1CC(C)Oc2ccccc21 (stereo unspecified)
→ 0	100	105	110
- CSc1ccc(CCNC(=O)Cn2ncc3c(=O)oc4ccc(C)cc4c32)cc1
→ -35	103	111	87
- N#Cc1ccc(OCC(=O)NCCCn2ccnc2)cc1
→ -20	x	119	87
- CC(=O)Nc1sc2c(c1C(c1cccnc1)N1CCN(C)CC1)CCCC2 (stereo unspecified)
→ -13	x	105	90
- CSc1ccc(-c2noc(CSc3ccc(-c4cccc(Br)c4)nn3)n2)cc1
→ -12	107	x	x
- COc1ccc(C(=O)CSc2nc(-c3ccco3)nc3c2c(=O)n(C)c(=O)n3C)cc1
→ x	102	91	87
- O=C(Nc1ccc(-c2nc3ncccc3o2)cc1)c1ccccc1Cl
→ 3	105	98	84
- CSc1ccc(CNc2ccc(S(N)(=O)=O)cc2)cc1
→ 0	101	119	92
- CCN(CC)S(=O)(=O)c1ccc(NC(=O)CN2c3ccccc3CC2C)cc1 (stereo unspecified)
→ -10	x	102	92
- CC(=O)Nc1ccc(/C=C2/SC(=Nc3ccccc3)NC2=O)cc1
→ -10	92	104	74
- CC(C)Cc1nn2c(=O)cc(COC(=O)c3ccccc3NC(=O)C3CCCCC3)nc2s1
→ x	100	94	95
- O=C(C1=C(O)/C(=C/c2ccccc2)CCC1)C(F)(F)F
→ x	106	80	57
- COc1ccc(C(=O)N2CCC(c3nc4ccccc4s3)CC2)cc1Cl
→ -5	98	95	63
- COc1cc(OC)c(C2=NOC(C(=O)Nc3ncn(CC(=O)N4CCC(C)CC4)n3)C2)cc1Cl (stereo unspecified)
→ -6	108	105	88
- COC(=O)C1C(=O)c2c([nH]c(C(=O)OC(C)C)c2C)CC1C (stereo unspecified)
→ x	105	86	79
- CCOC(=O)N1CCC(C(=O)OCCOc2cccc(Cl)c2)CC1
→ -10	x	110	88
- COc1ccc(-c2n[nH]c3c2C(c2ccccc2)N(c2ccccc2)C3=O)cc1 (stereo unspecified)
→ x	102	80	72
- O=C(CC1CCCC1)N(c1nccs1)C1CCCCC1
→ -21	x	79	77
- O=C(CSc1ccc2c(c1)OCCO2)Nc1ccccc1
→ -30	x	82	93
- COc1cccc(CNC(=O)c2cc3c(=O)n(C)c4ccccc4c3n2C)c1
→ 0	105	107	83
- CC(CNC(=O)CN1C(=O)c2cccnc2Oc2ccc(Cl)cc21)c1ccccc1 (stereo unspecified)
→ x	107	113	100
- O=C(NC1CCS(=O)(=O)C1)c1ccc(C(=O)c2ccccc2)cc1 (stereo unspecified)
→ -12	x	95	84
- COc1ccc(OC)c(NC(=O)c2cccc(N3C(=O)C4CC=C(C)CC4C3=O)c2)c1 (stereo unspecified)
→ -4	102	x	x
- CC(C)(C)C1CCc2c(sc3nc(-c4cc5cc(Br)ccc5oc4=O)[nH]c(=O)c23)C1 (stereo unspecified)
→ -5	97	93	98
- COc1ccc(-c2noc(N3CCN(c4cccc(C)c4C)CC3)n2)cc1OC
→ x	102	131	106
- CCOCCn1c(=O)c2c(nc3n2CCCCN3c2ccc(OCC)cc2)n(C)c1=O
→ -20	96	x	x
- Cc1ccc(-n2cc[nH]c(=O)c2=O)c(C)c1
→ -42	102	x	x
- O=C(CN1CCOCC1)N1N=C(c2ccc(Cl)cc2)CC1c1ccco1 (stereo unspecified)
→ -3	106	97	79
- CN(C)c1ccc(C(=O)OCC(=O)NC2CC2)cc1
→ -4	x	112	90
- CCOC(=O)CC1=Nn2c(nnc2-c2cccs2)SC1
→ -30	99	86	80
- O=C(Cn1c(=O)n(Cc2ccc(C(=O)NCc3ccc4c(c3)OCO4)cc2)c(=O)c2ccccc21)Nc1ccc(F)cc1F
→ -42	103	102	92

Profiles, quoted from the list. Screens in order: HCMV NEC inh, GIV Gai3 FP, Sa growth inh, Sa growth inh second temp
O=C(C1=C(O)/C(=C/c2ccccc2)CCC1)C(F)(F)F is entered as x, 106, 80, 57
N#Cc1ccc(OCC(=O)NCCCn2ccnc2)cc1 is entered as -20, x, 119, 87
CSc1ccc(-c2noc(CSc3ccc(-c4cccc(Br)c4)nn3)n2)cc1 is entered as -12, 107, x, x
COc1ccc(C(=O)N2CCC(c3nc4ccccc4s3)CC2)cc1Cl is entered as -5, 98, 95, 63
COc1ccc(-c2n[nH]c3c2C(c2ccccc2)N(c2ccccc2)C3=O)cc1 (stereo unspecified) is entered as x, 102, 80, 72

Additional compounds:
Every second line gives: HCMV NEC inh	GIV Gai3 FP	Sa growth inh	Sa growth inh second temp
- CCOC(=O)c1ccccc1NC(=O)CN(c1ccccc1)S(=O)(=O)c1ccc(OCC)cc1
→ -32	105	103	90
- O=C(Nc1ccncc1)c1ccccc1O
→ 7	x	109	98
- O=C(Nc1ccccc1)OCC1(c2ccccc2)C(=O)c2ccccc2C1=O
→ -19	x	97	90
- CS(=O)(=O)N1CCC(C(=O)NC2CCCCCCC2)CC1
→ -14	103	106	92
- O=C(O)CNc1ncnc2ccccc12
→ -9	102	102	92
- O=C(NCc1ccccc1)c1ccc2c(c1)CCN2S(=O)(=O)c1ccc(Cl)cc1
→ -31	102	100	83
- Cc1nnc(SCC(=O)Nc2sc3c(c2C(N)=O)CCC(C)C3)[nH]c1=O (stereo unspecified)
→ -11	x	85	84
- CCOC(=O)c1cc2c(=O)n3ccccc3nc2n(CC2CCCO2)c1=NC(=O)c1ccc(C(C)(C)C)cc1 (stereo unspecified)
→ -7	104	115	89
- CC1(C)CC(NC(=O)COc2ccc(Cl)cc2Cl)CC(C)(C)N1
→ -2	x	116	92
- CCOc1ccc(NCc2cccn2-c2nnc(N3CCC(C(=O)NCc4ccccc4Cl)CC3)s2)cc1
→ -25	109	106	94
- COC(=O)c1ccc(C#CC(C)(C)O)cc1
→ -7	99	97	89
- CC(C)(C)C(=O)Nc1cccc(C(=O)NN)c1
→ -5	107	85	79
- CC1CCN(S(=O)(=O)c2ccc3ncn(CC(=O)N4CCCCC4C)c(=O)c3c2)CC1 (stereo unspecified)
→ 4	102	x	x
- Cc1ccc(-n2ncc(C(=O)NCCN3CCc4ccccc4C3)c2C2CCNCC2)cc1C
→ x	98	100	93
- COC(=O)CCC(=O)c1cc2ccccc2o1
→ -65	104	97	80
- CC(C)N(C(=O)CSc1nc2ccccc2c(=O)[nH]1)C(C)C
→ -14	96	115	88
- O=C(CCn1cnc2onc(-c3ccccc3)c2c1=O)NCc1cccc(Br)c1
→ -2	109	x	x
- CC1=NN(c2ccc(S(N)(=O)=O)cc2)C(=O)/C1=C\C=C/c1ccccc1
→ x	99	107	88
- CCCn1c2ccccc2c2cnn(CC(=O)NCC3CCN(Cc4ccc(F)cc4)CC3)c(=O)c21
→ x	103	127	59
- O=c1[nH]nc(-c2ccccc2)c2cc3c(=O)[nH]nc(-c4ccccc4)c3cc12
→ -8	103	89	88
- CN(CC(=O)Nc1ccc(N2CCOCC2)cc1)C(=O)Cc1ccccc1
→ -21	x	89	90
- Cc1occc1C(=O)N(Cc1ccccc1)Cc1ccccc1
→ -12	98	107	68
- COC(=O)C(O)(CC(=O)c1ccc(C(C)C)cc1)C(F)(F)F (stereo unspecified)
→ -13	101	94	90
- O=C(NCc1ccccc1)c1ccc(N2C(=O)Cn3c(cc4sccc43)C2=O)cc1
→ x	104	100	87
- c1ccc(CN2CCOCCN(Cc3ccccc3)CCOCC2)cc1
→ x	103	97	102
- O=C(O)CCC(=O)N1N=C(c2c(-c3ccccc3)c3cc(Cl)ccc3[nH]c2=O)CC1c1ccccc1Cl (stereo unspecified)
→ 5	98	x	x
- CN1CCN(C(=O)c2nc(-c3ccccc3)n(-c3ccccc3)n2)CC1
→ -22	95	x	x
- COc1ccc(-n2c(C)cc(CNS(=O)(=O)c3ccc4c(c3)CCC(=O)N4)c2C)cc1
→ -24	126	x	x
- CCOC(=O)[C@H]1NC(=O)C[C@H]1c1ccccc1
→ 6	x	90	98
- O=c1[nH]cccc1-c1nc(-c2ccccc2Cl)no1
→ -58	98	x	x
- CN(C)CC/C=C1\c2ccccc2COc2ccccc21
→ -20&6&-11	103	x	x
- COc1ccc(Br)cc1/C=C1/SC(=Nc2ccccc2)NC1=O
→ -3	98	x	x
- CCOc1ccc(-c2nnc(NC(=O)C3CCN(c4ncnc5sc(C)c(C)c45)CC3)o2)cc1
→ -27	x	94	82
- Cc1ccccc1-c1ocnc1C(=O)NCc1ccc(C(F)(F)F)cc1
→ -4	105	100	91
- CSc1sc(C(=O)NN=NC(C)C)c2c1C(O)CCC2 (stereo unspecified)
→ -44	104	99	89
- CC(C)NC(=O)c1ccc(Cn2c(SCc3ccc(F)cc3)nc3cccnc32)cc1
→ x	102	92	103
- COc1ccc(C(=O)COC(=O)c2ccco2)cc1OC
→ -22	x	98	92
- Cc1c(C(=O)Nc2onc3c2CC(C)CC3)oc2ccccc12 (stereo unspecified)
→ 7	97	x	x
- Cc1cccc(NC(=O)CSc2nc(=O)n(CCN3CCOCC3)c3c2CCC3)c1C
→ x	97	118	90
- Cc1cc(C(=O)NN)nn1-c1c(Cl)cc(Cl)cc1Cl
→ -10	104	105	100
- CCOC(=O)CNc1ncnc2nc[nH]c12
→ -12	105	97	90
- CN(C)/C=C/c1ncc(C(F)(F)F)cc1Cl
→ -1	104	x	x
- Cc1nnc(SCC(=O)N2N=C3/C(=C/c4cccs4)CCCC3C2c2cccs2)n(N)c1=O (stereo unspecified)
→ -31	x	105	100
- O=C(Cn1ncc2c(=O)oc3ccccc3c21)Nc1cnc2ccccc2c1
→ -26	98	x	x
- O=C(Nc1cccc2c1CCCC2)n1ncc2cc(Cl)ccc21
→ -20	106	x	x
- COc1ccc(C(=O)Nc2nccs2)cc1OC
→ -14	96	106	63
